# Screening data from PubChem BioAssay.
# CSC inhib: cancer stem cell inhibition. cancer stem cell-like cells viability, luminescence. 300,000 compounds, 1.1% hits. inhibition, % at 7.5 µM;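 active = mean at 75% or more and at least half the replicates too; inconclusive = mean and replicates disagree; tested in HMLE shEcad cells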;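 also: 0% = median of negative and 100% = median of positive control wells; the first replicate is given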
# MT1-MMP act inh: inhibitors of human MT1-MMP activation | P50281 | HT1080 RFP-PRO-GFP cells, GFP/RFP ratio fluorescence, overnight; percent of plate control window, DMSO zero | GFP/RFP ratio change, % at 20 µM | 360,000 compounds, 0.061% hits | AID 651647;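 active = GFP/RFP ratio change of at least 30% with cell ATP level not reduced by more than half and red fluorescence within 50% of control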; also: strong numbers were not always called active
#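 Compound: 20 µM single dose, 1% DMSO / System: HT1080 RFP-PRO-GFP cells / Controls: DMSO and RFP-L50D-GFP cell wells / Read-out basis: GFP/RFP fluorescence ratio / Schedule: overnight compound exposure at 37 °C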
# Env fusion inh: inhibitors of HIV Env-mediated cell fusion | HeLa-JRFL Env/CEM21 cell fusion, luciferase | inhibition, % at 12.3 µM | 360,000 compounds, 1.1% hits | AID 651610;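 active = mean replicate inhibition score of at least 50 and every replicate individually at or above 50; inconclusive = only one of the two criteria met; inactive = mean below 50 and not all replicates reaching 50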;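 also: 0% = plate neutral controls and 100% = maraviroc near 300 nM; one replicate is shown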
# PABP FP inh: PABP-poly(A) binding inhibition | P11940 | inhibition, % at 35 µM | PABP-poly(A) RNA binding, fluorescence polarization | 290,000 compounds, 1% hits;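 active = 50% or more with normal probe brightness, or confirmed in later tests; inconclusive = above 50% with abnormal brightness, or retests that disagree; inactive = below 50% or failed in later tests; about a fifth of its hits are not listed in these tables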;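 also: calls also rest on retests at 20 µM and on dose response follow-up; controls were probe without protein and protein plus probe with vehicle; some compounds called inactive have numbers as strong as hits; many hits fall short of the cut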
# Target sequence (P11940 whole entry, looked up): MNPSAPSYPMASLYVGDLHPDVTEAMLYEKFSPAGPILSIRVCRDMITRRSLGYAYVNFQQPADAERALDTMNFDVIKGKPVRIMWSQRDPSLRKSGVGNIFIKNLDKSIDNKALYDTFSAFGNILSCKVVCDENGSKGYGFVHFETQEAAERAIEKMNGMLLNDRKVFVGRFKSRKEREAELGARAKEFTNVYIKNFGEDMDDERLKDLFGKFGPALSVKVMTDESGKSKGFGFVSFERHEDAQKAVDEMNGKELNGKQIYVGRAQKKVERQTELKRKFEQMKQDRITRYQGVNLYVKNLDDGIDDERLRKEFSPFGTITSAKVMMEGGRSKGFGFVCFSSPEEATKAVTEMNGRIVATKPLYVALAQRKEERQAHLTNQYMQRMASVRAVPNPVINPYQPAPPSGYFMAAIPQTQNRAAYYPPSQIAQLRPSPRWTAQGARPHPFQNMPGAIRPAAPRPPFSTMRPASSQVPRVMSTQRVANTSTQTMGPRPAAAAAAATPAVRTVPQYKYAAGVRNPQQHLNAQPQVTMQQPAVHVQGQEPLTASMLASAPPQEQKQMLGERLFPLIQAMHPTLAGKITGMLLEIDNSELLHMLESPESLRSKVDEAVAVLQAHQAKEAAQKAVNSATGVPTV
# Rce1 inhib: blocks yeast Ras-converting enzyme. Q03530. yeast membranes, quenched prenylated peptide cleavage fluorescence. calls only. 290,000 compounds, 0.27% hits;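 active = fall in fluorescence gain of 50% or more versus controls, with final raw signal at or below 3038400; inconclusive = same 50% fall but final raw signal above 3038400; inactive = fall in fluorescence gain under 50%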;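 also: plate controls were neutral control wells for no effect and wells lacking membranes for full effect; tested at 10 µM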
# Target sequence (Q03530 whole entry, looked up): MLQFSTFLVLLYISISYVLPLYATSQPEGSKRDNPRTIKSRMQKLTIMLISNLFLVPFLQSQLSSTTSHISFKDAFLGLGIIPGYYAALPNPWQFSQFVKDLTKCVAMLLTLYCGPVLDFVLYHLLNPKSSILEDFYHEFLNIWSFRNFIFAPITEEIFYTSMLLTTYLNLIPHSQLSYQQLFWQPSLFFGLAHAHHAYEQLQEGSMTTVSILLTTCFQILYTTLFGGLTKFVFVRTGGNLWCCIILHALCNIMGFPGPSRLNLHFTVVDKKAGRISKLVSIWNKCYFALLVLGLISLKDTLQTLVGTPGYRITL
# eIF4H inh: inhibitors of RNA binding by human eIF4H; Q15056; eIF4H fluorescence polarization binding assay; inhibition, % at 35 µM; 290,000 compounds, 0.94% hits;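 active = 50% or more with normal probe brightness, or confirmed in later tests; inconclusive = above 50% with abnormal brightness, or retests that disagree; inactive = below 50% or failed in later tests; about a fifth of its hits are not listed in these tables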;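 also: calls also rest on retests at 20 µM and on dose response follow-up; 0% = protein and probe with vehicle and 100% = probe without protein; strong numbers were not always called active; many hits fall short of the cut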
# Yeast UUG start: alters start codon recognition fidelity in yeast; activity score, % at 18.7 µM; AID 602363; 350,000 compounds, 0.13% hits; S. cerevisiae UUG-firefly luciferase reporter, luminescence/redox ratio;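 active = replicate mean at a twofold rise or more, about +100% in these data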;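 also: firefly luciferase made from a UUG start codon reports start codon fidelity; reporter light over untreated wells divided by growth signal over untreated wells; some hits fall short of that in this replicate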
# eIF4H inh retest: also measured in eIF4H inh; calls as there; inhibition, %; compound at 20 µM; confirmation average;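 mean of two retest wells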
# PABP FP inh retest: further read-out of PABP FP inh, marked with its call; inhibition, %; compound at 20 µM; confirmation repeats;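 mean of two retest wells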
# MT1-MMP act inh RFP: recorded beside MT1-MMP act inh, whose call it bears; RFP signal change, %; measured here: RFP expression control read;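 0 = vehicle wells; hits needed this value within 50% of zero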
# The depositor's hits bear a star; i = inactive; ? = inconclusive; · = not tested or not shown. Some of the compounds tested; the hit share may differ from the screen's.
SMILES,CSC inhib,MT1-MMP act inh,MT1-MMP act inh RFP,Env fusion inh,PABP FP inh,Rce1 inhib,eIF4H inh,Yeast UUG start,others
Cc1ccc(O)c(C(=O)c2cnc3c(c2)c(=O)n(C)c(=O)n3C)c1,1,7,1,-1,3,i,4,·,
CC(C)CC(=O)Nc1cccc(-c2nc3ncccc3o2)c1,6,4,-2,-19,-1,i,-6,-6,
Fc1cccc(NC(=S)NCc2cccnc2)c1,-7,5,6,6,9,i,-3,·,
CCN1CCN(C(=O)C2CCC(CNS(=O)(=O)c3ccccc3)CC2)CC1 (configuration not stated),29,-2,0,·,3,·,-4,-2,
O=C(COC(=O)/C=C/c1ccccc1)NCc1cccs1,2,1,2,·,·,·,·,2,
COc1cccc(C=Nc2cccc3c(=O)[nH][nH]c(=O)c23)c1O,-1,3,4,-21,4,i,-7,·,
CN(C)c1ccc(CNS(=O)(=O)c2csc(C(N)=O)c2)cc1,0,5,-7,-12,6,i,94,-27,eIF4H inh retest=-12;PABP FP inh retest=7
Cc1cccc(/C=N/n2c(-c3ccco3)n[nH]c2=S)c1,-3,0,-2,5,14,i,5,·,
O=C(c1nc2ccccn2c1CNCCCn1ncc2ccccc21)N1CCCC1,-9,4,5,12,4,i,-1,-21,
O=C1N=C(N2CCOCC2)S/C1=C1\C(=O)N(Cc2ccccc2)c2ccccc21,·,1,3,-144,-6,·,-2,4,
CCCc1nc2nc(C)c(NS(=O)(=O)c3ccc(Cl)cc3)c(=O)n2[nH]1,1,3,3,-7,3,·,4,-9,
CN(Cc1ccccc1)C(=O)CN1C(=O)NC2(CCCCCCC2)C1=O,-12,10,3,·,·,·,·,-16,
Cc1ccc(C(=O)NCC(C)NC(=O)c2ccc(C)c(C)c2)cc1C (configuration not stated),·,0,1,3,·,i,·,3,
COc1ccc(S(=O)(=O)NC(C)C(=O)NCc2ccccn2)cc1OC (configuration not stated),-13,1,2,-5,6,i,2,-32,
CCOC(=O)C1CCN(C(=O)C(CCSC)NC(=O)c2ccccc2OC)CC1 (configuration not stated),-12,-4,-2,·,·,·,·,-11,
O=C(/C=C/NCC(=O)c1ccccc1)c1ccc(Br)cc1,-4,-6,3,-5,-6,i,-3,-6,
O=S(=O)(NCC1CCCO1)c1ccc(Oc2ccccc2)cc1 (configuration not stated),·,1,-14,57*,-2,i,5,11,
CC(C)Cn1c(-c2ccc(F)cc2)n[nH]c1=S,-15,-1,3,·,-2,i,-8,·,
N#CC1=C(N)Oc2n[nH]c(-c3cccs3)c2C1c1ccccc1C(=O)O (configuration not stated),3,-2,0,11,-5,i,4,-32,
O=C(N/N=C/c1ccc(OCc2ccccc2)cc1)c1cccs1,10,0,-3,-34,10,i,8,-18,
Fc1cccc(/C=N/Nc2ccc3ccccc3n2)c1,-3,1,-3,-161,2,i,-13,·,
NC(=O)C1=C[C@@H](c2ccccc2)C[C@@H](OCCCCO)O1,-1,2,6,9,·,i,·,-20,
O=C(NCc1ccc(F)cc1)C1CCN(S(=O)(=O)c2cccnc2)CC1,-18,-1,1,-7,-5,i,-15,-17,
COc1c(Br)cc2c(C)c(C(=O)O)oc2c1Br,-6,-4,-4,-17,-6,i,11,·,
COc1ccc(Br)cc1CN1CCCC(C(=O)N2CCCCCC2)C1 (configuration not stated),-1,0,3,·,-4,i,4,·,

# Next part, overlapping the part above by 2 compounds.
SMILES,CSC inhib,MT1-MMP act inh,MT1-MMP act inh RFP,Env fusion inh,PABP FP inh,Rce1 inhib,eIF4H inh,Yeast UUG start,others
COc1c(Br)cc2c(C)c(C(=O)O)oc2c1Br,-6,-4,-4,-17,-6,i,11,·,
COc1ccc(Br)cc1CN1CCCC(C(=O)N2CCCCCC2)C1 (configuration not stated),-1,0,3,·,-4,i,4,·,
Cc1nc2ccc(C(=O)OCc3ccccc3Br)cc2nc1C,8,1,1,·,-5,i,-4,-27,
COc1cc(NC(=O)C2(C)CCN2C(=O)C(C)C)cc(OC)c1OC (configuration not stated),·,-1,2,0,·,·,·,-9,
COc1ccc(C(C)(O)c2nc(-c3cccc(C(C)C)c3)cs2)cc1 (configuration not stated),·,-3,-9,-3,·,·,·,-2,
CCCc1nnc(NC(=O)CCC(=O)NCc2ccc(OC)cc2)s1,6,0,2,-6,-1,i,-2,-20,
CC(C)C[C@@H](CN1CCC[C@@H]1CN1C(=S)NC[C@@H]1Cc1ccccc1)N1C[C@H](Cc2ccc(O)cc2)N(CCc2ccccc2)C1=S,·,0,-3,48,·,·,·,-17,
O=C(CCc1nc2ccccc2c(=O)[nH]1)N1CCN(c2ccc(F)cc2)CC1,-3,1,0,5,0,i,1,-6,
Cc1ccc(CNC(=O)CN2NS(=O)(=O)c3ccccc3C2=O)cc1,·,-2,-1,6,·,·,·,-4,
C/C(=N\NC(=O)CN(c1ccc(C)cc1)S(C)(=O)=O)c1cccs1,-26,5,6,15,33,i,6,·,
CN(C)N=Nc1ccc(-c2cn(Cc3ccccc3)cn2)cc1,45,20,9,-27,-15,i,-5,95,
COC(=O)c1ccccc1NC(=O)c1noc2c1CC(C(C)(C)C)CC2 (configuration not stated),12,9,1,2,-13,i,-9,-17,
c1nc(NCCN2CCOCC2)c2c3c(sc2n1)CCCCC3,·,-4,4,-3,3,i,2,·,
O=C(CN1C(=O)NC2(CCCCC2)C1=O)N1CCOCC1,-5,-1,3,-1,·,·,·,-11,
CCOC(=O)c1c(C)n(O)c2ccc(Cl)cc2c1=O,·,6,1,-25,40,i,31,-16,
COc1cccc(C2CC(=O)Nc3cc4c(cc32)CCC4)c1 (configuration not stated),14,-7,-18,32,-4,·,-1,·,
C=CCN1C(=O)CC(C(=O)NC)SC1=Nc1ccc(C(=O)OCC)cc1 (configuration not stated),-2,3,12,·,-6,i,-8,4,
COc1ccc(S(=O)(=O)N(C)Cc2cccs2)cc1Br,10,-4,-2,-9,8,i,3,-16,
COc1ccc(Br)cc1S(=O)(=O)n1nc(C)cc1C,-4,2,2,1,3,i,-6,-12,
O=C1CCCc2c1cc(C(=O)NCc1ccco1)c(=O)n2-c1ccccc1,-1,2,5,-36,1,·,2,-6,
Cc1ccc(S(=O)(=O)Oc2ccccc2/C=N/NC(=O)c2nn(C)cc2[N+](=O)[O-])cc1,-6,-10,-7,11,-8,i,-8,2,
COc1ccc(CC(=O)Nc2nc(-c3ccc(F)c(F)c3)cs2)cc1,67,2,-13,7,-2,i,5,-14,
Cc1cnc(NC(=O)c2ccncc2)s1,·,1,5,-3,-15,i,-7,-9,
c1ccc2c(c1)oc1c(Nc3ccc4c(c3)OCO4)ncnc12,-3,0,1,·,24,i,11,-8,
C=CCn1c(SCC(N)=O)nnc1-c1cccc(Br)c1,10,4,4,·,-8,i,0,-12,
CN(C)Cc1nc2ccccc2c(=O)n1CC(=O)Nc1cccc(S(=O)(=O)N2CCOCC2)c1,-7,5,5,12,-7,i,8,-9,
Cc1nn2c(CN(C(=O)COc3ccccc3)c3ccccc3)nnc2c2ccccc12,6,11,-3,·,0,i,-2,·,
# (continued)
SMILES,CSC inhib,MT1-MMP act inh,MT1-MMP act inh RFP,Env fusion inh,PABP FP inh,Rce1 inhib,eIF4H inh,Yeast UUG start,others
CC1=C(C#N)C(=O)N(C2CCS(=O)(=O)C2)C(=O)/C1=C\c1ccc(C)o1 (configuration not stated),-10,·,·,·,?,i,?,·,
C/C(CC(=O)Nc1ccc(Cl)cc1C(F)(F)F)=N\NC(N)=S,-12,-5,-3,-11,-7,i,-1,-16,
O=C(NCc1cccnc1)C1CCN(c2ccc(S(=O)(=O)N3CCOCC3)cc2Cl)CC1,12,-7,-16,-11,-3,i,5,·,
COc1ccc(N2C(=O)C3CCCN3C2c2cccc(C)c2)cc1Cl (configuration not stated),-2,4,1,-88,24,i,-2,8,
O=C(COc1ccccc1Cl)Nc1ccccc1C(=O)Nc1cccc(C(=O)O)c1,-2,0,2,1,-1,i,-14,-7,
O=C(CSc1nnnn1-c1ccccc1)N1CCc2ccccc2C1,-16,6,2,-149,2,i,12,-8,
C=CCn1c(SCc2ccccc2C#N)nnc1-c1cc(Br)ccc1O,-3,9,-5,4,10,i,10,-15,
O=C(Nc1ccccc1Sc1ccccc1)c1ccccc1,15,-4,0,-70,-9,·,-5,-18,
COc1ccc(S(=O)(=O)N(CC(=O)NCc2cccnc2)Cc2ccccc2)cc1,0,2,8,-13,4,i,4,·,
COc1ccc(OC)c(-n2nnnc2SCC(=O)Nc2ccccc2N2CCOCC2)c1,-13,-3,-1,11,-4,·,3,·,
COc1cc(CO)cc(Br)c1OCC(=O)Nc1cccc2ccccc12,28,-3,-4,13,-4,i,1,-8,
Nc1cccc(CP(=O)(c2ccccc2)c2ccccc2)c1,-5,-1,4,·,·,·,·,-10,
CCCn1c(N2CCN(CC(=O)c3c(C)n(C)c4ccccc34)CC2)nc2c1c(=O)[nH]c(=O)n2C,17,-7,-7,·,-7,i,-4,-13,
CC(C)CC(O)(CC(C)C)C(=O)NNc1ccccc1,-5,8,7,·,-3,i,5,-10,
CS(=O)(=O)Oc1ccc(/C=N/NC(=O)c2ccncc2)cc1,-4,0,4,7,-14,i,-5,-3,
COc1ccccc1N1CCN(C2CCN(C(=O)c3cccs3)CC2)CC1,-6,3,3,-289,-7,i,7,-18,
COc1cccc(NC(=O)CSc2nc3ccccc3cc2Cc2ccccc2)c1,4,-12,-12,·,2,i,2,-16,
O=C(Nc1nnc(C2=COCCO2)o1)c1cccc([N+](=O)[O-])c1,9,-1,1,·,-8,i,-5,-24,

# Structural class, the compounds so far containing bromine (nine)
SMILES,CSC inhib,MT1-MMP act inh,MT1-MMP act inh RFP,Env fusion inh,PABP FP inh,Rce1 inhib,eIF4H inh,Yeast UUG start,others
O=C(/C=C/NCC(=O)c1ccccc1)c1ccc(Br)cc1,-4,-6,3,-5,-6,i,-3,-6,
COc1c(Br)cc2c(C)c(C(=O)O)oc2c1Br,-6,-4,-4,-17,-6,i,11,·,
COc1ccc(Br)cc1CN1CCCC(C(=O)N2CCCCCC2)C1 (configuration not stated),-1,0,3,·,-4,i,4,·,
Cc1nc2ccc(C(=O)OCc3ccccc3Br)cc2nc1C,8,1,1,·,-5,i,-4,-27,
COc1ccc(S(=O)(=O)N(C)Cc2cccs2)cc1Br,10,-4,-2,-9,8,i,3,-16,
COc1ccc(Br)cc1S(=O)(=O)n1nc(C)cc1C,-4,2,2,1,3,i,-6,-12,
C=CCn1c(SCC(N)=O)nnc1-c1cccc(Br)c1,10,4,4,·,-8,i,0,-12,
C=CCn1c(SCc2ccccc2C#N)nnc1-c1cc(Br)ccc1O,-3,9,-5,4,10,i,10,-15,
COc1cc(CO)cc(Br)c1OCC(=O)Nc1cccc2ccccc12,28,-3,-4,13,-4,i,1,-8,
